EPAC1 agonist – qHTS for Agonist of cAMP-regulated guanine nucleotide exchange factor 3 (EPAC1): primary screen; Rap guanine nucleotide exchange factor 3 (Homo sapiens), O95398; EPAC1 agonist qHTS, biochemical assay; response scale: 100% = response to 6.5 mM cAMP; Potency, µM (highest dose often 154 µM), for the others: at the top dose activation, actives largely listed as activators; 360,000 tested, 0.073% active; also: potency is read from the fitted curve at half-maximal effect; nearly all actives have a fitted effect of over 60% in size
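Fluorescent GDP-exchange assay: 100 nM EPAC1 with 250 nM Rap1B preloaded with BODIPY-GDP and 50 uM GDP; compounds tested as concentration series, 5 min at room temperature, then read every 5 min for 30 min (ex 480/em 540 nm); normalized to 6.5 mM cAMP.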
PLK1 PBD block – qHTS for Inhibitors of PLK1-PDB (polo-like kinase 1 - polo-box domain): Primary Screen | Plk1 PBD binding of FITC phosphopeptide, fluorescence polarization | Potency, µM, without a hit: max response, negative = inhibition, hits mostly inhibitors | 360,000 tested, 2.8% active | AID 720504, 2013; also: potency is read from the fitted curve at half-maximal effect; series mostly up to about 57 µM; % is scaled to controls: 0 for no effect and ±100 for the full control effect; nearly all actives have a fitted effect of over 65% in size
Target sequence (P53350 whole entry, looked up, the tested form may be a part): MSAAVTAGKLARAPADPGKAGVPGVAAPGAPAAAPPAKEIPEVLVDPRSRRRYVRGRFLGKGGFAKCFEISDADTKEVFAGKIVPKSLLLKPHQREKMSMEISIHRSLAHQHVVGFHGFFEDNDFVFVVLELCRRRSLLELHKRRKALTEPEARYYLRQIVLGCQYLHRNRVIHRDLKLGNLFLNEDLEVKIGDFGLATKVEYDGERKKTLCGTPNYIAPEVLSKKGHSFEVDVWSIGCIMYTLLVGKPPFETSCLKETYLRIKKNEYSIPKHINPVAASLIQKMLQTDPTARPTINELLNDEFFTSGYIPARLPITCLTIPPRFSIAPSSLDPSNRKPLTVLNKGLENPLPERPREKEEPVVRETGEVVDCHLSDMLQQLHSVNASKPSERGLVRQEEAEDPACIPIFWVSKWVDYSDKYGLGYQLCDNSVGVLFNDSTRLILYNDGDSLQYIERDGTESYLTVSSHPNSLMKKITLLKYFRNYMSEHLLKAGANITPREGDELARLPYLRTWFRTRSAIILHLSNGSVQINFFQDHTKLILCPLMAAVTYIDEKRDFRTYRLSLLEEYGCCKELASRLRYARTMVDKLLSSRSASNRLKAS
aSyn yeast inh – qHTS of alpha-syn Inhibitors. Yeast expressing alpha-synuclein, growth rescue, BacTiter-Glo, 24 h. 370,000 tested, 0.14% active. Potency, µM (series often up to 46.1 µM), for the others: top-dose growth rescue (activation), actives largely listed as activators. AID 652106, 2013; also: potency is read from the fitted curve at half-maximal effect; % of control where 0% means no effect; nearly all actives have a fitted effect of over 65% in size
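Readout is rescue of growth in alpha-synuclein-expressing yeast, so inhibitors of toxicity appear as activators. Growth after 24 hr at 30 deg C in galactose medium is quantified by luminescence.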
IL2 activator – qHTS of IL-2 Activators; IL-2 activation reporter assay, cell-based qHTS; stimulated with anti-CD3/CD4/CD28 beads; in transgenic mouse T cells; activation, % (series mostly up to about 46 µM); 360,000 tested, 0.065% active; AID 652025, 2013; in the data active = activation above about 50%; inconclusive = mostly about 30% to 49%; also: 0% is about no effect
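First, unstimulated transgenic mouse T cells were exposed to compound for 60 min. Next, anti-CD3/anti-CD4-coated beads with anti-CD28 were added. Finally, after 18 h at 37 degrees C, EGFP and DsRed were imaged.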
FUS yeast rescue – qHTS for Suppressors of FUS Proteinopathy: Primary screen using FUS-linked yeast assay | S. cerevisiae FUS-expressing, growth rescue, OD600, 24 h | Potency, µM (titrated, usually from 76.6 µM), for inactives: at the highest dose growth rescue (activation), hits mostly activators | 390,000 tested, 0.24% active | AID 1347120, 2019;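 also: potency is read from the fitted curve at half-maximal effect; plate controls were DMSO vehicle for no effect and reference control for full effect; nearly all actives have a fitted effect of over 55% in size; some results filed as inactive show a strong effect at the top dose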
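Steps: raffinose overnight preculture; dilution to OD 0.005 in 2% galactose minimal medium; compound addition (concentration series); 24hr at 30C, 99% humidity; absorbance read at 600 nm.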
EPAC1 antagonist – qHTS for Antagonist of cAMP-regulated guanine nucleotide exchange factor 3 (EPAC1): primary screen; Rap guanine nucleotide exchange factor 3 (Homo sapiens), O95398; EPAC1 GEF assay, Rap1b-BODIPY-GDP exchange fluorescence; Potency, µM (top dose mostly 115 µM), for the others: top-dose activity change, negative = inhibition, hits mostly inhibitors; 360,000 tested, 0.14% active; AID 720709, 2013;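 also: potency is read from the fitted curve at half-maximal effect; plate controls were vehicle for no effect and positive control for full effect; nearly all actives have a fitted effect of over 50% in size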
Abeta yeast res – qHTS for compounds that reverse cellular toxicity of Amyloid beta (A-beta) peptide in yeast: Primary Screen; 410,000 tested, 0.063% active; yeast expressing A-beta42, growth rescue, OD600, 48 h; response scale: 0% DMSO, 100% iron-clioquinol control; Potency, µM (series often up to 46.1 µM), without a hit: at the highest dose growth rescue, actives largely listed as activators; also: potency is read from the fitted curve at half-maximal effect; nearly all actives have a fitted effect of over 55% in size
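Yeast growth medium received pinned compounds, then yeast cells expressing toxic A-beta were added; plates incubated at 30 C for 48 hr. Growth read as absorbance at 600 nm, normalized to DMSO and equimolar FeCl3 plus clioquinol controls.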
Active calls of the source: *; ? = inconclusive; . = no result given; [ ] = dose if it differs, or a comment. Unless noted, calls follow the shape of the dose curve; as a rule, active = well fitted curve in the direction sought with a large enough effect; inconclusive = small, poorly fitted or top-dose-only effect, or another doubt; inactive = no such curve, though single readings can be large; an effect the other way counts as inactive or inconclusive. Only part of the results is shown (hit frequency here may not be typical).

SMILES | EPAC1 agonist | PLK1 PBD block | aSyn yeast inh | IL2 activator | FUS yeast rescue | EPAC1 antagonist | Abeta yeast res
CCN(CC)C(=O)C1=C(C)Nc2nnnn2C1c1cccnc1 (centres undefined) | 9% | 2% | 2% | 0.9 | -2% | 19% | 9%
c1cc(-c2ccncc2)ccn1 | -6% | -10% | -4% | -0.4 | . | 7% | 1%
COc1ccc(/C(O)=C2\C(=O)C(=O)N(c3cc(C)on3)C2c2ccc(OC)c(OC)c2)cc1OC (centres undefined) | -4% | 0% | 14% | -2.0 | 28% | -5% | -12%
CN(C)C(CNc1ccc(C(F)(F)F)cc1[N+](=O)[O-])c1ccccc1 (centres undefined) | -7% | -8% | -4% | -0.4 | -14% | -16% | -17%
Cc1ccccc1OCc1nc(-c2ccc(NC(=O)c3ccc4c(c3)OCO4)cc2)no1 | -4% | -10% | -2% | -1.6 | 26% | -7% | 15%
COc1cccc2cc(C(=O)CS(=O)(=O)c3ccc(Cl)cc3)c(=O)oc12 | 7% | 17µM* | 3% | 0.2 | 18% | -11% | ?
Nc1nc(Nc2cccc(F)c2)nc(NCc2ccco2)c1[N+](=O)[O-] | 14% | 2% | 1% | -3.5 | 15% | -28% | 0%
CN1CCN(C(=O)CNc2ccc(C(F)(F)F)cc2[N+](=O)[O-])CC1 | 2% | -5% | 5% | 0.5 | 8% | -1% | -18%
O=C(NN=Cc1ccc(F)c(F)c1)c1ccc(NS(=O)(=O)c2cccs2)cc1 | 3% | 2% | 1% | -2.0 | . | -2% | -1%
CC(=O)c1ccc2c(c1)N(CCCN1CCC(CCO)CC1)c1ccccc1S2 | 0% | -11% | 3% | 0.1 | -2% | 4% | -10%
O=C(Nc1nnc(Cc2ccccc2F)s1)c1ccccc1Cl | 6% | ? | 1% | -2.1 | -13% | -3% | 8%
CCOC(=O)C(=O)NC12CC3CC(CC(C3)C1)C2 | -11% | -7% | -13% | -3.4 | 17% | -9% | -21%
CCOC(=O)N1CCN(C(=O)c2ccc3c(c2)NC(=O)/C(=C\c2cccc(C)c2)S3)CC1 | 5% | -10% | -4% | 0.1 | 37% | -17% | .
O=C(Nc1ccccc1N1CCCCC1)c1ncoc1-c1cccc(F)c1 | 8% | -7% | -5% | -0.7 | -12% | 0% | 27%
COc1ccc(/C=C2/Sc3ccc(C(=O)N4CCc5ccccc5C4)cc3NC2=O)cc1 | 12% | 4% | 2% | 2.4 | 11% | -4% | 5%
CCOCC(=O)OCC(=O)NC12CC3CC(CC(C3)C1)C2 | -4% | 2% | 9% | -2.8 | -24% | 7% | -1%
O=C(Nc1nnc(CCN2CCCCC2)s1)c1cccc(Cl)c1 | -3% | -24% | 2% | 0.0 | 0% | 5% | 9%
O=C(COC(=O)CNC(=O)c1cccs1)Nc1ccc(C(F)(F)F)cc1[N+](=O)[O-] | 8% | 5% | 0% | -1.0 | 3% | -2% | 3%
CC(C)C(C(=O)OCC(=O)c1ccc2c(c1)NC(=O)CO2)N1C(=O)c2ccccc2C1=O (centres undefined) | -8% | -26% | -1% | -2.7 | 11% | -11% | 2%
CCC1OC(=O)C(C)C(OC2C[C@@](C)(OC)C(O)C(C)O2)C(C)C(O[C@@H]2OC(C)CC(N(C)C)C2O)[C@](C)(O)CC(C)C(=NOCOCCOC)C(C)C(O)[C@]1(C)O (some centres undefined) | -3% | -14% | 2% | -0.5 | -4% | -25% | -4%
O=C(O)c1cc2ccc3ccccc3c2oc1=O | -1% | -2% | -26% | -2.4 | -9% | 2% | 7%
Cc1cc(N/N=C/c2ccc(F)cc2)nc(-n2nc(C)cc2C)n1 | -9% | -6% | 9% | -0.5 | 9% | 8% | 13µM*
COC(=O)[C@H](C(C)C)N(Cc1ccccc1)S(=O)(=O)CCN1CCN(c2ccccc2)CC1 | 4% | -8% | -4% | -0.1 | 18% | -13% | 4%
COc1ccccc1N1C(=O)C2C(C(=O)c3ccccc3)=NN(c3ccc(Br)cc3)C2C1=O (centres undefined) | -38%[inhibitor] | -17% | -2% | 2.5 | 19% | 35µM* | 16%
O=S(=O)(Nc1cccc(C(F)(F)F)c1)c1cnc[nH]1 | 15% | -15% | 5% | 1.1 | -6% | 0% | 1%

Some of the entries above, reformatted.
SMILES,EPAC1 agonist,PLK1 PBD block,aSyn yeast inh,IL2 activator,FUS yeast rescue,EPAC1 antagonist,Abeta yeast res
COc1cccc2cc(C(=O)CS(=O)(=O)c3ccc(Cl)cc3)c(=O)oc12,7%,17µM*,3%,0.2,18%,-11%,?
O=C(COC(=O)CNC(=O)c1cccs1)Nc1ccc(C(F)(F)F)cc1[N+](=O)[O-],8%,5%,0%,-1.0,3%,-2%,3%

4 compounds picked at random from those above:
SMILES | EPAC1 agonist | PLK1 PBD block | aSyn yeast inh | IL2 activator | FUS yeast rescue | EPAC1 antagonist | Abeta yeast res
CC(C)C(C(=O)OCC(=O)c1ccc2c(c1)NC(=O)CO2)N1C(=O)c2ccccc2C1=O (centres undefined) | -8% | -26% | -1% | -2.7 | 11% | -11% | 2%
CCN(CC)C(=O)C1=C(C)Nc2nnnn2C1c1cccnc1 (centres undefined) | 9% | 2% | 2% | 0.9 | -2% | 19% | 9%
O=C(Nc1nnc(Cc2ccccc2F)s1)c1ccccc1Cl | 6% | ? | 1% | -2.1 | -13% | -3% | 8%
O=C(O)c1cc2ccc3ccccc3c2oc1=O | -1% | -2% | -26% | -2.4 | -9% | 2% | 7%

Going on with the list.
SMILES | EPAC1 agonist | PLK1 PBD block | aSyn yeast inh | IL2 activator | FUS yeast rescue | EPAC1 antagonist | Abeta yeast res
O=C(N/N=C/c1ccncc1)c1ccc(NS(=O)(=O)c2cccs2)cc1 | 4% | -8% | -4% | 0.4 | 16% | 3% | -4%
CC1=C(C(=O)Nc2cccnc2)C(c2ccccn2)n2nnnc2N1 (centres undefined) | -2% | 4% | . | -0.5 | -9% | 1% | 6%
NC(=O)c1cc(NC(=O)c2ccc(NS(=O)(=O)c3cccs3)cc2)cc(C(N)=O)c1 | 8% | -11% | -13% | -1.6 | 12% | 3% | -7%
O=C(Nc1cnn(Cc2ccc(F)cc2)c1)c1noc2c1CCCC2 | 1% | 0% | 1% | 1.2 | 13% | -9% | .
COc1cc(OC)c(/C=N/n2c(C)nnc2C)c(OC)c1 | -10% | -5% | -3% | 0.3 | . | -27% | 6%
CCOc1ccccc1OCCNC1CCCC1 | -2% | -11% | -9% | 1.3 | -21% | -5% | -3%
O=C1Nc2cc(C(=O)N3CCc4ccccc4C3)ccc2S/C1=C\c1ccccc1 | -3% | -11% | 14% | -0.4 | . | -4% | 19%
CC(=O)Nc1ccc(S(=O)(=O)N[C@@H](C)C(=O)OCC(=O)c2ccc[nH]2)cc1 | 0% | 6% | -4% | 0.2 | -4% | -17% | -19%
O=C(CSc1nnc(-c2ccco2)n1Cc1ccccc1)NC(=O)NCc1ccccc1 | -1% | -9% | 2% | -2.5 | 31% | 5% | 5%
O=Cc1cccc(OC(=O)/C=C/c2ccco2)c1 | 6% | ? | 0% | 1.5 | 5% | -29% | -22%
Clc1cc(Cl)c(Cl)c(Cl)c1Cl | -1% | 1% | 9% | 0.3 | -42% | -8% | -27%
COc1ccc(N/N=C(/C(N)=O)C2=NC(C)(C)Cc3ccccc32)cc1 | 13% | -6% | 14% | -1.0 | -5% | 1% | 8%
O=C1Nc2cc(C(=O)N3CCN(c4ccccn4)CC3)ccc2S/C1=C\c1ccccc1 | -3% | -9% | -1% | -1.1 | 51% | -4% | -2%
C/C(=N/NC(=O)c1cccc(C)c1)c1c(O)cc(C)oc1=O | 5% | -10% | -10% | 0.9 | -22% | -1% | -9%
COC(=O)C1=NN(c2ccc(C)cc2)C2C(=O)N(c3ccccc3OC)C(=O)C12 (centres undefined) | 4% | 3% | 2% | 0.2 | 24% | 10% | 15%
C/C(=N\NC(=O)c1cccs1)c1c(O)cc(C)oc1=O | 4% | -8% | -4% | -3.7 | 23% | -6% | -15%
COc1ccc(NC(=O)c2cc(-c3cc(Cl)ccc3C)n[nH]2)cn1 | 5% | -16% | -16% | -0.2 | -2% | ? | -5%
CCc1ccc(NC(=O)c2onc(C)c2Cl)cc1 | -16% | -13% | -4% | -0.3 | -5% | -25% | -21%
COc1ccccc1NC(=O)C1=C(C)Nc2nnnn2C1c1ccncc1 (centres undefined) | -1% | 3% | 0% | -2.7 | -9% | 8% | -5%
CCOC(=O)CN1C(=O)SC(Nc2ccc(C)cc2)C1=O (centres undefined) | -10% | -14% | 3% | -0.6 | 7% | -8% | 7%
COc1ccc(/C=C/C(=O)NC(=S)N2CCSCC2)cc1 | -2% | -20% | 1% | -0.3 | -6% | -11% | ?
O=C1CCC/C(=N/NC(=O)c2ccc(NS(=O)(=O)c3cccs3)cc2)C1 | 7% | -15% | -3% | 4.6 | 23% | -5% | -23%

Three entries from above in a different format.
Structure	EPAC1 agonist	PLK1 PBD block	aSyn yeast inh	IL2 activator	FUS yeast rescue	EPAC1 antagonist	Abeta yeast res
O=C1Nc2cc(C(=O)N3CCc4ccccc4C3)ccc2S/C1=C\c1ccccc1	-3%	-11%	14%	-0.4	.	-4%	19%
O=C(COC(=O)CNC(=O)c1cccs1)Nc1ccc(C(F)(F)F)cc1[N+](=O)[O-]	8%	5%	0%	-1.0	3%	-2%	3%
O=C1Nc2cc(C(=O)N3CCN(c4ccccn4)CC3)ccc2S/C1=C\c1ccccc1	-3%	-9%	-1%	-1.1	51%	-4%	-2%

Source: PubChem BioAssay
